# D2 ag = agonists of human D2 dopamine receptor (beta-arrestin) | DiscoveRx PathHunter D2 beta-arrestin, luminescence, 90 min; 100% = 57 uM dopamine signal | AID 624465 | activation, % (no concentration beside the values) | actives 0.084% (n = 360,000) | P14416; in the data active = activation above about 40%; inconclusive = about 15% to 40%; inactive = below about 15%; further: compound concentration not given in the record; the text of the record calls up to 30% inactive
#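 Agonist mode: compounds alone added to overnight-plated D2 PathHunter cells for 90 min at 37 C, with 57 uM final dopamine (EC100) defining full response. Beta-arrestin recruitment detected by chemiluminescent reagent, read after 1 h at ambient temperature.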
# PINK1 expr mod = modulators of PINK1 expression; actives 0.2% (n = 410,000); Potency, µM (top dose mostly 76.6 µM), for inactives: at the highest dose activation (PINK1 increase), actives largely listed as activators; PINK1 immunofluorescence, high-content cytometry, 24 h; AID 624263; active = well fitted activation curve with a large enough effect; inconclusive = small, poorly fitted or top-dose-only effect; inactive = flat fitted curve, though single readings scatter; cell line not stated here;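 further: potency means the concentration at half of the fitted maximal effect; % of control where 0% means no effect; nearly all actives have a fitted effect of over 65% in size; a mitochondrial uncoupler was the plate control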
#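 A stable cell line was treated with compounds at 5 concentrations for 24 hours, with CCCP as control. PINK1 levels and mitochondrial localization were measured by immunofluorescence with mitochondrial, cell and nuclear markers after fixation, read by laser-scanning cytometry.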
# Six1-Eya2 blk = Six1/Eya2 interaction inhibition. activity change, % (test concentration not listed). AlphaScreen GST-Six1/His-Eya2 binding, biochemical; hits give low values; control for the full effect not named in the record. Q15475+O00167. actives 0.56% (n = 360,000); in the data active = activity change below about -65%; inconclusive = about -30% to -65%; inactive = above about -30%; further: on the % scale 0 is the no-effect control and ±100 the full control effect; compound concentration not given in the record
# Target sequence (O00167 whole entry, looked up): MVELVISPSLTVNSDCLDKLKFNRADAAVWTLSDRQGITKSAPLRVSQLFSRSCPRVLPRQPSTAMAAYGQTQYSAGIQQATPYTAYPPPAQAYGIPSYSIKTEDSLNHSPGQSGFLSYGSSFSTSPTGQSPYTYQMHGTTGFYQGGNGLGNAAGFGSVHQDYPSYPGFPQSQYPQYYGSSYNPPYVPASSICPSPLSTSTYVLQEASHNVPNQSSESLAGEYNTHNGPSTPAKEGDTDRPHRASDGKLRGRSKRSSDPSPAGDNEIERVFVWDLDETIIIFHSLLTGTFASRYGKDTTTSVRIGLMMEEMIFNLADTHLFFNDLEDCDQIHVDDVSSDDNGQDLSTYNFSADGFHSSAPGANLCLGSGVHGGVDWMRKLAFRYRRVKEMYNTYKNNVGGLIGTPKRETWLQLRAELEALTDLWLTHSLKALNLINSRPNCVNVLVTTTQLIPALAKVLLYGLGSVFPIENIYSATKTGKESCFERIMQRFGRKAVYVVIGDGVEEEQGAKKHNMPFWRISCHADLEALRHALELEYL
# Target sequence (Q15475 whole entry, looked up): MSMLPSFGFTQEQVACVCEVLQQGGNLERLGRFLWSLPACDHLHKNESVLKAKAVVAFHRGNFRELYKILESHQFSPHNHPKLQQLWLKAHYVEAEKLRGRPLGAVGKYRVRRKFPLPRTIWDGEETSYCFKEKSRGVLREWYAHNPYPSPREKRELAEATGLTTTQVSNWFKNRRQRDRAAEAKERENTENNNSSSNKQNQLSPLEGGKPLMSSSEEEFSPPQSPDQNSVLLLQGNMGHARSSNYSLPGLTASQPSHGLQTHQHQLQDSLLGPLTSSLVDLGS
#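 GST-Six1 + His-Eya2 (5X stock: 250/500 nM); Tris pH 8.0, 300 mM NaCl, 0.05% BSA, 0.02% Tween 20; GSH donor/Ni acceptor beads; 1 h 37 °C dark; AlphaScreen readout.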
# CtBP-E1A blk = CtBP/E1A binding inhibition | AlphaScreen GST-E1A/His-CtBP binding, 1536-well; hits give low values; control for the full effect not named in the record | activity change, % (no concentration beside the values) | actives 0.49% (n = 340,000); in the data active means activity change below about -65%; inconclusive means about -30% to -65%; inactive means above about -30%; further: on the % scale 0 is the no-effect control and ±100 the full control effect; compound concentration not given in the record
#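 Steps: dispense buffer (Tris pH 8.0, NaCl 300 mM, TCEP 1 mM, BSA, Tween 20); add 5X protein mix (GST-E1A, His-CtBP, 125 nM each); pin 23 nL compound; 2 h at 37 °C, dark; add 5X beads (50 ug/mL); 1 h; read.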
# TRPML1 blocker = human mucolipin-1 channel inhibition. actives 0.02% (n = 390,000). TRPML1-inducible cells, Ca2+ dye fluorescence, FDSS; hits give low values; inhibition of EC80 agonist-evoked calcium signal. activity change, negative = inhibition, % (test concentration not listed); in the data active means activity change below about -50%; inconclusive means about -30% to -50%; inactive means above about -30%;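 further: stimulus is agonist 54-4 at its EC80 concentration; on the % scale 0 is the no-effect control and ±100 the full control effect; compound concentration not given in the record; the text of the record puts the active cut at -80%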
#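 Calcium fluorescence in TRPML1-DL cells induced overnight with Tet: a 110 s read after compound pin addition, then a 110 s antagonist read after challenge with 54-4 at 4 uM final (EC80).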
# TRPML1 agonist = human mucolipin-1 channel agonism; TRPML1-expressing cells, Ca2+ dye fluorescence, FDSS; host cell line not named in the record; reference of the full effect not given here; activation, % (test concentration not listed); actives 0.12% (n = 410,000); AID 624414; in the data active = activation above about 50%; inconclusive = about 30% to 50%; inactive = below about 30%; further: 0% is about no effect; the text of the record puts the active cut at 80%
#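 Agonist activity was taken from a 110 s kinetic Ca2+ dye read on the FDSS after pinning compounds onto TRPML1-DL cells. The cells were seeded at 1,500/well with Tet inducer, incubated about 16 h, then dye-loaded at room temperature.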
# Numbers without * were called inactive; ? = inconclusive; . = not tested or not shown; [ ] = dose if it differs, or a comment.
SMILES,D2 ag,PINK1 expr mod,Six1-Eya2 blk,CtBP-E1A blk,TRPML1 blocker,TRPML1 agonist
Cn1c(SC2C(=O)CC(C)(C)CC2=O)nnc1-c1ccco1,-0.4,1.1%[38.3 µM],2,2,-6,0.8
CC(C)n1c(=O)[nH]c(=O)n1C(C)C,-1.0,0.7%,11,0,4,-0.3
FC(F)(F)c1cc(C(F)(F)F)c2ccc(N3CCOCC3)nc2n1,-3.6,4.2%,-5,12,13,1.0
CN(Cc1nc(-c2ccccn2)no1)S(=O)(=O)c1ccc(Br)cc1,-0.7,2.5%,1,-1,-8,-0.3
Cc1ccc(C(=O)NCC(=O)OCCCOC(=O)CNC(=O)c2ccc(C)cc2)cc1,-1.0,-1.3%,7,0,3,1.3
CCNc1nc(OCCNC(C)=O)nc(N(C)C)n1,-4.2,2.9%,8,1,14,0.1
CCCCNC(=S)N/N=C/c1ccccc1F,-2.1,0.5%,5,-4,-13,2.4
COc1ccc(S(=O)(=O)N2CCC(C(=O)NCCC(=O)NCc3ccccc3OC)CC2)cc1,7.8,-1.1%,5,6,16,0.2
NC(=O)COC(=O)[C@@H]1CC(O)CN1S(=O)(=O)c1ccc2c(c1)OCCO2 (stereo partly drawn),-2.0,-2.3%,11,-5,-5,-0.3
COc1cc(/C(C)=N/NC(=O)C(O)(c2ccccc2)c2ccccc2)ccc1O,-4.5,0.8%,4,2,-17,0.8
CCCCC#Cc1ccccc1CC(=O)Nc1ccccc1,-4.3,1.5%,1,19,5,2.0
COc1ccccc1NC(=O)CSCc1ccc([N+](=O)[O-])cc1,0.0,1.2%,-17,-17,9,0.7
CC(=NCCCn1ccnc1)c1c(-c2ccccc2)[nH]n(-c2nc3ccccc3s2)c1=O,-1.5,-4.2%,-7,-16,-10,4.7
Cc1cc(C)nc(NS(=O)(=O)c2ccc(NC(=O)c3ccc(S(=O)(=O)N4CCOCC4)cc3)cc2)n1,-2.2,4.0%[38.3 µM],2,5,14,0.5
CC1=C(C#N)C(/C=N/OCc2ccc(F)cc2Cl)CC(=O)N1 (stereo not drawn),-13,10%,14,-13,-11,0.7
CN(C)c1ccc(NC(=O)C2CCCN(S(=O)(=O)c3ccccc3)C2)cc1 (stereo not drawn),-4.2,7.7%,-21,0,2,-2.0
Cc1ccc(CNC(=O)c2ccc3nc(N4CCCCC4)sc3c2)cc1,.,0.2%,.,.,0,2.6
O=C(NCCc1ccccc1F)c1cccc2cccnc12,-1.0,-2.0%,-2,-1,26,1.3
CN1CCN(c2nc3c(c(=O)[nH]c(=O)n3C)n2Cc2ccccc2)CC1,-5.2,-1.1%,-7,1,3,0.3
FC(F)(F)c1ccc2c3n(nc2c1)CCN=C3c1ccc(Cl)cc1,3.2,4.1%,0,3,-21,0.9
CN(CC(=O)Nc1ccc(F)cc1)C(=O)COC(=O)c1cccc(N(C)C)c1,4.3,2.5%,-2,-5,19,2.0
O=C(CCN1C(=O)[C@@H]2Cc3ccccc3CN2C1=O)N[C@H](Cc1ccccc1)C(=O)O,-3.3,1.2%,7,-1,.,.
Cc1cccc(NC(=O)C(C)OC(=O)CNC(=O)C2CCCCC2)c1 (stereo not drawn),-2.2,-0.2%,4,-5,-10,-0.8
Cc1noc(C)c1C(=O)N1CCN(c2ncccn2)CC1,0.6,-5.8%[38.3 µM],4,6,-8,0.5
COc1ccc(/C=N/NC(=O)CNC(=O)c2ccc3c(c2)OCCO3)cc1OC,2.5,3.1%,2,-1,17,-0.6
SMILES,D2 ag,PINK1 expr mod,Six1-Eya2 blk,CtBP-E1A blk,TRPML1 blocker,TRPML1 agonist
CCOc1ccc(NS(=O)(=O)c2cc(Br)cc3c2N(C(=O)C2CC2)CC3)cc1,.,8.6%,.,.,-3,-0.8
Cc1oc2cc3oc(=O)c(CC(=O)N4CCCCC4)c(C)c3cc2c1C,.,-0.4%,.,.,10,-0.5
C[C@H](CO)N1C[C@H](C)[C@@H](CN(C)S(=O)(=O)c2cccs2)OCc2cnnn2CCCC1=O,-6.0,2.8%,3,-7,-7,-0.5
COCCNC(=O)CSc1nc2ccc(N3CCOCC3)cc2c(=O)n1Cc1ccc(OC)cc1,8.9,-2.0%,-6,-16,25,0.9
N#CCCSCc1ccc2oc(C(=O)O)cc2c1,-1.4,-0.6%[38.3 µM],3,13,-6,0.3
Cc1cc(C)cc(N2CC(c3nc4ccccc4n3C)CC2=O)c1 (stereo not drawn),2.1,-0.1%,-3,4,-14,-0.2
COc1ccccc1Nc1nc(C2(C)CCC(=O)O2)cs1 (stereo not drawn),-3.0,-1.8%[38.3 µM],-1,-10,5,5.2
Brc1ccc(/C=N/Nc2ccc3ccccc3n2)cc1,0.3,20%[38.3 µM],-4,0,-16,0.0
COc1ccccc1C1C(C(=O)c2cc3ccccc3o2)=C(O)C(=O)N1c1cc(C)on1 (stereo not drawn),-6.7,2.1%,-7,.,32,3.1
O=[N+]([O-])c1ccc(/C=N/Nc2nc(-c3ccccc3)c3cc(Br)ccc3n2)o1,5.6,9.9%,-7,-3,17,1.3
NC(CO)(CO)COCc1ccccc1,3.1,0.1%,2,3,-5,-0.6
CCN(CC)c1nc2c(c(=O)[nH]c(=O)n2C)n1CCCc1ccccc1,1.2,-0.5%,-3,0,-16,-0.6
O/N=C(\c1ccccc1)C(O)c1ccccc1 (stereo not drawn),-1.9,0.4%,4,-3,-10,-0.4
COc1ccc(NC(=O)CN(C)C(=O)c2cc3c(s2)CCCCC3)cc1,0.9,-0.3%,-11,-4,4,0.9
CCCC(=O)Nc1cc(OCC)c(NC(=O)NC2CCCCC2)cc1OCC,2.8,0.0%[38.3 µM],1,3,-11,-0.1
Cc1ccc(C=C2C(=O)c3ccccc3C2=O)s1,-3.9,-0.9%,-2,4,9,-0.1
Cc1cc(C)c(NC(=O)C2CSCCS2)c(C)c1 (stereo not drawn),-5.7,0.3%,1,1,2,-1.0
O=C(Nc1ccsc1C(=O)N1CCCC1)c1ccccc1,-5.8,3.9%,-3,7,13,1.5
COc1cccc(N2CCN(C(=O)CCn3nc(C)c(S(=O)(=O)N4CCCC4)c3C)CC2)c1,.,1.5%,.,.,1,-1.0
Cc1cc(C)c(C(=O)CSc2nnc(-c3ccccc3Br)o2)cc1C,-0.8,8.9%,13,0,21,0.8
O=C(Nc1ccc(S(=O)(=O)N2CCCCC2)cc1)c1cccnc1Cl,-2.5,-1.2%,-1,7,31,-0.5
COc1ccc(/C=N/NC(=O)Nc2cccc3nsnc23)cc1OC,4.7,12%,?,?,23,-0.6
CCC(=O)N/C(N)=N/c1nc(C)c2cc(C)c(C)cc2n1,-2.9,-0.2%,2,-4,-1,0.5
CCN(CC)CCn1c(=S)[nH]c2ccccc2c1=O,-3.5,17%[38.3 µM],0,-10,5,0.9
COc1cccc(N(CC(=O)NC2CCCCC2)C(=O)CCC(=O)Nc2nc(C)cs2)c1,-1.5,-2.1%,-5,2,-8,2.4

# Part of the list above, limited to TRPML1 agonist and TRPML1 blocker.
canonical_smiles | TRPML1 agonist | TRPML1 blocker
Cc1cc(C)c(NC(=O)C2CSCCS2)c(C)c1 (stereo not drawn) | -1.0 | 2
C[C@H](CO)N1C[C@H](C)[C@@H](CN(C)S(=O)(=O)c2cccs2)OCc2cnnn2CCCC1=O | -0.5 | -7
COCCNC(=O)CSc1nc2ccc(N3CCOCC3)cc2c(=O)n1Cc1ccc(OC)cc1 | 0.9 | 25

# Taken from above.
# COc1ccccc1Nc1nc(C2(C)CCC(=O)O2)cs1 (stereo not drawn) | TRPML1 blocker = 5
# COc1ccc(/C=N/NC(=O)Nc2cccc3nsnc23)cc1OC | D2 ag = 4.7
# Cc1cc(C)cc(N2CC(c3nc4ccccc4n3C)CC2=O)c1 (stereo not drawn) | Six1-Eya2 blk = -3
# N#CCCSCc1ccc2oc(C(=O)O)cc2c1 | CtBP-E1A blk = 13

# Some of the entries above, reformatted:
molecule	D2 ag	PINK1 expr mod	Six1-Eya2 blk	CtBP-E1A blk	TRPML1 blocker	TRPML1 agonist
Cc1cccc(NC(=O)C(C)OC(=O)CNC(=O)C2CCCCC2)c1 (stereo not drawn)	-2.2	-0.2%	4	-5	-10	-0.8
Cc1cc(C)nc(NS(=O)(=O)c2ccc(NC(=O)c3ccc(S(=O)(=O)N4CCOCC4)cc3)cc2)n1	-2.2	4.0%[38.3 µM]	2	5	14	0.5
CCN(CC)CCn1c(=S)[nH]c2ccccc2c1=O	-3.5	17%[38.3 µM]	0	-10	5	0.9

# The listing continues.
SMILES,D2 ag,PINK1 expr mod,Six1-Eya2 blk,CtBP-E1A blk,TRPML1 blocker,TRPML1 agonist
CC(=O)Nc1ccc(Oc2ccc3nc(C)[nH]c3c2)cc1,-3.3,-2.2%,0,-1,-26,0.0
FC(F)(F)c1cc(-c2ccccc2)nc(-n2cncn2)n1,-0.7,-2.7%[38.3 µM],2,6,-12,-0.1
CCSc1nc2ccccc2n1C(=O)Oc1ccccc1,-9.1,0.3%,7,5,3,-0.5
OCC1CCCC(n2cnc3c(=S)nc[nH]c32)O1 (stereo not drawn),0.3,-0.5%,5,3,18,-0.9
CCOc1ccc(C(C(=O)NC(C)(C)C)N(CCOC)C(=O)CCC(=O)Nc2ccccn2)cc1 (stereo not drawn),0.9,1.7%,1,-1,0,-0.3
CC(Oc1ccc(Cl)cc1Cl)C(=O)OCn1nnc2ccccc2c1=O (stereo not drawn),-2.9,-0.8%,6,3,-2,4.5
CC(CN1CCOCC1)(NS(=O)(=O)c1ccccc1)c1ccccc1 (stereo not drawn),-1.2,-2.8%[38.3 µM],7,0,25,-0.1
c1ccc(NNC2=NCCS2)cc1,6.5,-0.8%,3,0,-10,-0.8
Cc1ccc(NC(=O)CN(C)C(=O)COC(=O)CNS(=O)(=O)c2ccc(F)c(F)c2F)cc1,0.9,-1.3%,6,10,16,0.0

# Full records as entered above.
# `OCC1CCCC(n2cnc3c(=S)nc[nH]c32)O1` (stereo not drawn) is entered as D2 ag = 0.3; PINK1 expr mod = -0.5%; Six1-Eya2 blk = 5; CtBP-E1A blk = 3; TRPML1 blocker = 18; TRPML1 agonist = -0.9
# `CC(=O)Nc1ccc(Oc2ccc3nc(C)[nH]c3c2)cc1` is entered as D2 ag = -3.3; PINK1 expr mod = -2.2%; Six1-Eya2 blk = 0; CtBP-E1A blk = -1; TRPML1 blocker = -26; TRPML1 agonist = 0.0

# From PubChem BioAssay
